HCMV UL50-53 inh – inhibitors of HCMV UL50-UL53 nuclear egress complex interaction; HTRF UL50-UL53 interaction, normalized percent inhibition; inhibition, % (test concentration not listed); hit rate 0.15% among 190,000; AID 1918969;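 active = both replicates at 50% or more, plus weaker picks with an unusually low signal ratio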;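 also: stock transfer was 100 nL into about 20 µL; 0% = negative control wells and 100% = wells with untagged competitor protein; inactives centre near -12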
GIV-Gai inh – blocks GIV peptide binding to rat Galpha-i3; Galpha-i3/FITC-GIV peptide fluorescence polarization, 90 min; stronger effect = lower value; scaled: aluminum fluoride 0%, vehicle 100%; hit rate 0.42% among 210,000; P08753; percent of control (FP), % (concentration not given with the values);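 active = replicate mean at 85% of control or lower, very high polarization wells dropped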;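 also: wells of about 15 µL received 100 nL stock; the first replicate is given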
Target sequence (P08753 whole entry, looked up): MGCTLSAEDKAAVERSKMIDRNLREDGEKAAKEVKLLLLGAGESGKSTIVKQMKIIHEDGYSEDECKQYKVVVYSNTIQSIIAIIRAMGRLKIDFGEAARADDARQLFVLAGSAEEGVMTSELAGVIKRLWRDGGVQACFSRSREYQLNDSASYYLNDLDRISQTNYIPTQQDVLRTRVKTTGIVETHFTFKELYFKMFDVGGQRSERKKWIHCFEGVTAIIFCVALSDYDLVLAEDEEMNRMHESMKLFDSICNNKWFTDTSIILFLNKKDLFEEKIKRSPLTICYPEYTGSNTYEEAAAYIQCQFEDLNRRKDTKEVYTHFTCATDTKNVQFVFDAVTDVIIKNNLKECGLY
Sa growth inh – S. aureus growth inhibition. S. aureus RN4220 growth, OD600, 20 h, 42 °C; stronger effect = lower value. relative growth, % (concentration not given with the values). hit rate 0.53% among 170,000;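 active = growth at 42 °C up to 50% and 20 or more points under that at 30 °C, or under 10% at both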;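 also: 300 nL library stock went into each well; scaled to the means of positive and negative controls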
Sa growth inh second temp – second read-out of Sa growth inh, no call of its own (marks repeat the call); relative growth, %; measured here: growth at 30 °C;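 optical density after 20 h as mean of two plates; 100% = untreated growth and lower means inhibition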
* = called active by the depositor; · = no result given; & = joins results of further samples. Compounds were not picked by outcome. Share with any hit: about 0.82%.

molecule | HCMV UL50-53 inh | GIV-Gai inh | Sa growth inh | Sa growth inh second temp
CCCCCCc1c(C)c2ccc(OC(C)C(=O)O)c(C)c2oc1=O (configuration not stated) | -16 | 102 | 60 | 51
Cc1ccc(C)n1-c1ccsc1C(=O)NN | -37 | 106 | 101 | 93
CC1=C(c2ccc(C)c(C)c2)S(=O)(=O)N(Cc2ccc(C(=O)NCCCOC(C)C)cc2)C1=O | 0 | 98 | · | ·
Cc1nc(-c2ccc(S(=O)(=O)NCc3ccco3)s2)cs1 | · | 101 | 93 | 80
COCCNC(=O)c1cc2sc3ccccc3c2s1 | -28 | 109 | 101 | 103
COc1cccc(NC(=S)Nc2ccc3nc4n(c(=O)c3c2)CCCCC4)c1 | -14 | 98 | 106 | 68
Nc1ccc(C(=O)N2CCCC2)cc1 | -20 | 99 | 120 | 93
COCCn1c(SC(C)C(N)=O)nc2ccccc21 (configuration not stated) | -14 | · | 77 | 79
O=C(NCc1ccco1)c1ccccc1SCc1ccc(F)cc1 | -4 | · | 93 | 89
COc1cc(OC)c(C(=O)OCC#N)cc1OC | 9 | · | 101 | 96
O=C(CN1C(=O)C2C3C=CC(C3)C2C1=O)Nc1nncs1 (configuration not stated) | -9 | 97 | 83 | 87
CCC(C)NC(=O)CSc1nc2ccsc2c(=O)n1CCc1ccc(Cl)cc1 (configuration not stated) | 7 | 101 | 117 | 100
CCN(CC)C(=O)c1ccccc1-c1ccccc1C(=O)O | -32 | 106 | 96 | 85
COc1ccccc1NC(=O)c1noc2ncn(C)c(=O)c12 | -8 | 97 | 95 | 88
O=C(/C=C/c1ccc(OC(F)F)cc1)Oc1ccc(-n2cnnn2)cc1 | -30 | · | 82 | 85
COc1cc(C)c(S(=O)(=O)N2CCc3cc4ccccc4nc32)cc1C | -19 | 108 | · | ·
CCc1ccc2[nH]c(=O)c(C(c3nnnn3C3CCCC3)N(C)Cc3ccccc3)cc2c1 (configuration not stated) | -23 | 99 | 129 | 95
Cc1cc(C)cc(NC(=O)Cn2cnc3c2c(=O)n(C)c(=O)n3C)c1 | -20 | 105 | 91 | 76
CC(C)CCNC(=O)C1CCN(Cc2ccccc2O)CC1 | -16 | 102 | 119 | 103
Cc1ccc2nc(-c3ccc(NC(=O)c4ccncc4)cc3)sc2c1 | 2 | · | 88 | 87
COc1ccc(-c2noc(-c3ccc(N4CCCC4)c([N+](=O)[O-])c3)n2)cc1OC | -14 | 96 | 100 | 87
CCC(C)(C)NS(=O)(=O)c1cc(-c2ccno2)oc1C | -8 | 110 | · | ·
Cc1ccc2c(c1)c(-c1ccccc1)c(-c1ccccc1)n2CC(O)Cn1c(C)cc(C)nc1=O (configuration not stated) | · | 103 | 98 | 84
CCOc1ccc(OC(=O)c2sc3ncn(Cc4cccc(F)c4)c(=O)c3c2C)cc1 | · | 105 | 113 | 86
O=C(O)C1CCN(c2nc3ccccc3n2Cc2cccc(F)c2)CC1 | 0 | 107 | 95 | 72
CC(C)n1ncc2c(C(=O)NCC3COc4ccccc4O3)cc(C3CC3)nc21 (configuration not stated) | -33 | · | 105 | 82
Cc1cc(C)c(NC(=O)Cn2c(=O)n(Cc3ccccc3)c(=O)c3c(C)c(C(=O)N(C)C)sc32)c(C)c1 | · | 111 | 121 | 100
Clc1cccc(-c2cc(-c3nc(-c4ccc(Br)cc4)no3)[nH]n2)c1 | -23 | 104 | · | ·
O=S(=O)(NCCCO)c1ccc2c(c1)Cc1cc(S(=O)(=O)NCCCO)ccc1-2 | -2 | 97 | 87 | 110
Cn1c2c(c(=O)n(C)c1=O)CN(Cc1ccccc1)CN2 | -7 | 104 | 111 | 92
CC(C)OCCCn1c(=O)c2ccccc2n2c(=O)n(CC(=O)NCc3ccccc3Cl)nc12 | -16 | 100 | · | ·
COc1ccc(S(=O)(=O)Nc2cc(Cl)ccc2OC)cc1 | -7 | 102 | · | ·
CCCCn1nc(NC(=O)c2cccc(Cl)c2)c2cc3cccc(C)c3nc21 | -18 | 105 | 111 | 78
Cc1cc(-n2c(=O)[nH]c(=O)n(C)c2=O)ccc1Oc1ccc(SC(F)(F)F)cc1 | -37&2 | 97 | 95 | 81
O=C(NC1CC1)c1cc(-c2cccnc2)nc2ccc(S(=O)(=O)N3CCCCCC3)cc12 | 5 | 102 | 91 | 86
CCc1ccc(CNC(=O)c2cnc3sc(N(CC)CC)nn3c2=O)cc1 | · | 102 | 99 | 94
COc1cc(C(=O)NCC(c2ccco2)S(=O)(=O)c2ccccc2)cc(OC)c1OC (configuration not stated) | · | 98 | 122 | 85
Cc1ccc(C)c(OCc2nc(C)c(C(=O)Nc3nccs3)s2)c1 | 7 | 110 | · | ·
Cc1ccc(S(=O)(=O)NCCN2CCOCC2)cc1-c1nnc2c3ccccc3c(C)nn12 | -4 | 99 | 89 | 100
Cc1ccc(C(=O)Nc2ccccc2C(=O)O)cc1S(=O)(=O)N1CCCCCC1 | 23 | 106 | 111 | 79

Further results
Order of results: HCMV UL50-53 inh	GIV-Gai inh	Sa growth inh	Sa growth inh second temp
CCc1ccc(-c2cc(C)no2)cc1S(=O)(=O)N1CCCC(CN2CCc3ccccc3C2)C1 (configuration not stated)
→ -1	110	·	·
O=C(CC(c1ccccc1)c1cc(Br)ccc1O)NCCCN1CCOCC1 (configuration not stated)
→ ·	100	126	89
CC(=O)c1ccc(NS(=O)(=O)c2ccc3[nH]c4c(c3c2)CCCC4)cc1
→ ·	106	96	94
OCc1ccc(OCc2cnc(Cl)s2)cc1
→ -7	100	·	·
CCOC(=O)C1=C(C)N(c2ccccc2)C(=O)C1CC(=O)O (configuration not stated)
→ -28	103	94	87
CCC(CC)C(=O)Nc1nc2c(s1)CC(C)CC2 (configuration not stated)
→ -2	103	102	96
Cc1ccc(-c2nc3n(CC(=O)NC4CCCC4)c4c(c(=O)n3n2)CCC4)cc1
→ 3	112	·	·
CC1(C)CC(=O)C2=C(C1)OC(N)=C(C#N)C2c1cc(Cl)cc(Cl)c1OC(=O)N1CCOCC1 (configuration not stated)
→ -38	102	·	·
C=CCc1ccccc1OCc1cc(=O)n2ccsc2n1
→ 10	97	·	·
Cc1nc(-c2cnn3c(C)cc(C(F)(F)F)nc23)no1
→ -12	102	85	80

Some values from the results shown.
In HCMV UL50-53 inh, CCC(CC)C(=O)Nc1nc2c(s1)CC(C)CC2 (configuration not stated) is listed with -2
In HCMV UL50-53 inh, Cc1nc(-c2cnn3c(C)cc(C(F)(F)F)nc23)no1 is listed with -12

Later entries.
Order of results: HCMV UL50-53 inh	GIV-Gai inh	Sa growth inh	Sa growth inh second temp
O=C1Nc2ccccc2C12CC(c1ccc(F)c(Cl)c1)=NN2 (configuration not stated)
→ -44	·	79	48
CCCS(=O)(=O)N1CCC(n2c(C(F)(F)F)nc3cccnc32)CC1
→ ·	102	75	91
CCSC1=C(C#N)C(=O)NC(c2ccc(OC)cc2)S1 (configuration not stated)
→ ·	97	114	77
CCC1=Nc2cc(C(=O)NCCN3CCOCC3)ccc2Sc2ccccc21
→ 4	98	113	94
O=S(=O)(NC1CCCc2ccccc21)c1cccc2nonc12 (configuration not stated)
→ -25	97	102	82
CCN(CC)C(=O)c1ccc(I)cc1
→ -14	107	107	80
CN1CC(C(=O)N2CCN(c3ccccc3F)CC2)c2ccccc2C1=O (configuration not stated)
→ -23	97	90	81
COc1ccc(-c2ccc(CCC(=O)O)o2)cc1
→ -17	·	78	56
O=C(CCc1cn(Cc2ccccc2Cl)c2ccccc12)NC1CCCCC1
→ ·	104	109	94
COc1ccc(-c2csc(-c3nc(-c4ccc(OC)cc4)cs3)n2)cc1
→ 13	107	·	·

Results in Sa growth inh and Sa growth inh second temp, for some of the entries so far:
compound,Sa growth inh,Sa growth inh second temp
COc1ccc(-c2ccc(CCC(=O)O)o2)cc1,78,56
CCSC1=C(C#N)C(=O)NC(c2ccc(OC)cc2)S1 (configuration not stated),114,77
O=C1Nc2ccccc2C12CC(c1ccc(F)c(Cl)c1)=NN2 (configuration not stated),79,48

More compounds:
Order of results: HCMV UL50-53 inh	GIV-Gai inh	Sa growth inh	Sa growth inh second temp
CCC(CO)NC(=O)c1cc2cc(Br)cc(Br)c2o1 (configuration not stated)
→ 13	·	98	79
O=C(Cn1nc(C(=O)O)c2ccccc2c1=O)NC1CCCc2ccccc21 (configuration not stated)
→ -1	·	98	90
Cc1ccccc1-c1nc(Cn2nc(C)c3c(C)onc3c2=O)c(C)o1
→ -38	110	·	·
CCc1ccc(NC(=O)c2sc3nc(C)nc(N4CCN(c5ccccn5)CC4)c3c2C)cc1
→ -3	94	·	·
COc1ccc(CCC(=O)NC2CC(=O)N(c3ccccc3)C2)cc1 (configuration not stated)
→ ·	101	106	96
CC(C)(C)OC(=O)N1CCC(c2c(C(=O)NCc3cccs3)cnn2-c2cccc(F)c2)CC1
→ ·	108	107	88
CCN=C(NCC)SC1CC(=O)N(c2ccccc2)C1=O (configuration not stated)
→ -4	103	104	96
CC(C)(C)n1ncc2c(=O)n(Cc3ccccc3)cnc21
→ -14	104	96	87
COc1ccccc1CNC(=O)/C=C/c1cccc(Br)c1
→ 9	·	94	95
COCc1cc(C)nc2sc3c(c12)NC(c1ccccc1)NC3=O (configuration not stated)
→ -46	·	88	71
CCc1ccccc1NC(=O)Cn1cc(C(=O)c2ccc(Cl)cc2)c(=O)c2ccc(C)nc21
→ ·	105	84	88
CC1CN(C(=O)NC23CC4CC(CC(C4)C2)C3)CC(C)O1 (configuration not stated)
→ -6	98	103	96
O=C(NCc1ccccc1)C1Cc2ccccc2CN1C(=O)c1ccco1 (configuration not stated)
→ -33	·	111	90
COc1ccc(NC(=O)CSc2ccccc2)cc1
→ -20	·	115	91
CO/N=C(\C(=O)N[C@@H]1C(=O)N2C(C(=O)O)=C(CSc3nc(=O)c(O)nn3C)CSC12)c1csc(N)n1 (some centres not stated)
→ -50	101	·	·
CCOc1ccc2oc(=O)cc(CN3CCN(C(=O)c4ccc(F)cc4)CC3)c2c1
→ -17	100	99	70
COc1ccc(N2Cc3cccc(C(=O)Nc4ccc(C(C)C)cc4)c3C2=O)cc1
→ -36	101	95	71
Cc1cc2ccccc2n1CCCN
→ -33	106	119	0
Cc1ccc2nc(-c3ccc(NC(=O)CC4SC(=NCc5ccco5)NC4=O)cc3)sc2c1 (configuration not stated)
→ -12	·	111	48
CC(C)CC(=O)c1sc(Nc2ccccc2)nc1N
→ 8	124	·	·
O=C(c1ccco1)N1CCN(C(=O)c2cc3cc(Br)cc(Br)c3oc2=O)CC1
→ -80	106	115	82
CCOC(=O)CCCN1C(=O)CCn2nc(-c3cn(C)c4ccccc34)cc21
→ -15	112	105	84
CCCCCc1ccc(-c2nc(CCCC)no2)cc1
→ -81	99	95	82
CCC(=O)Nc1ccc2c(c1)nc1n2CCN(C2CCCCC2)C1
→ -42	119	86	73
O=C(Nc1ccc(F)cc1F)Nc1cc(NC(=O)c2ccc(F)cc2)ccc1N1CCCC1
→ -28	102	·	·
O=C(O)c1cccc(S(=O)(=O)NCc2ccc3c(c2)OCO3)c1
→ -12	·	97	98
Cc1cn2c(=O)cc(COC(=O)c3ccc(NC(=O)COc4ccccc4F)cc3)nc2s1
→ ·	103	97	88
Cn1c(=O)c2c(nc(SCC(=O)N3CCOCC3)n2C)n(C)c1=O
→ -20	103	·	·
C1CN(c2nc(N3CCOCC3)nc(N3CCOCC3)n2)CCN1
→ -29	99	108	82
Cc1ccc(C2c3[nH]c4ccccc4c3CCN2C(=O)c2ccc(N(C)C)cc2)cc1 (configuration not stated)
→ ·	107	87	92
N#CCn1nnc2ccccc21
→ 1	·	87	94
CCN(CC)c1ncccc1C(=O)N1CCCC1
→ 35	103	100	80
CCN(CC)c1ccc2c(COC(C)=O)cc(=O)oc2c1
→ -92	116	103	88
COC(=O)C1=CN(C2CCCC2)C=C(C(=O)OC)C1c1ccc(Cl)cc1
→ 5	104	100	96
CN(CCC#N)C(=O)C1CCC(CNS(=O)(=O)c2ccccc2)CC1 (configuration not stated)
→ ·	98	102	85
CCN1CCN(C(=O)C2c3ccccc3C(=O)N(CC(C)C)C2c2cccs2)CC1 (configuration not stated)
→ -24	100	83	83
OCCN1CN=C(Nc2nc3ccccc3o2)NC1
→ ·	104	107	82
COc1ccc(CCNC(=O)c2coc3ccccc3c2=O)cc1
→ -19	·	97	92
COc1ccc2oc(=O)cc(-c3cc4cccc(OC)c4o3)c2c1
→ -2	108	102	96
CCC1(CC)C(=O)C(C)(C)C(=O)OC1c1cccs1 (configuration not stated)
→ -4	102	108	94
N#C/C(=C(/O)CN1C(=O)c2ccccc2C1=O)c1nc2ccccc2[nH]1
→ -2	110	104	94
O=S(=O)(CCS(=O)(=O)c1ccccn1)c1ccc(Cl)cc1
→ -6	105	110	74
CCc1cc2c(NC3CCCC3)ncnc2s1
→ 1	·	87	75
O=C(NCC1CCN(CCc2ccc(F)cc2)CC1)Nc1ccc2c(c1)OCO2
→ -24	102	94	91
COc1ccc(CNC(=O)c2cccc(NC(=O)N3CCSc4ncccc43)c2)cc1
→ ·	105	89	87

Five compounds picked at random from the list so far:
Order of results: HCMV UL50-53 inh	GIV-Gai inh	Sa growth inh	Sa growth inh second temp
O=S(=O)(CCS(=O)(=O)c1ccccn1)c1ccc(Cl)cc1
→ -6	105	110	74
CCc1cc2c(NC3CCCC3)ncnc2s1
→ 1	·	87	75
N#C/C(=C(/O)CN1C(=O)c2ccccc2C1=O)c1nc2ccccc2[nH]1
→ -2	110	104	94
O=C(NCC1CCN(CCc2ccc(F)cc2)CC1)Nc1ccc2c(c1)OCO2
→ -24	102	94	91
COc1ccc(CNC(=O)c2cccc(NC(=O)N3CCSc4ncccc43)c2)cc1
→ ·	105	89	87

Source: PubChem
